Screening results deposited in PubChem by National Center for Advancing Translational Sciences (NCATS).
Resorufin fluor – compound fluoresces in the resorufin spectral region; Compound fluorescence, resorufin region 547/598 nm, buffer; stronger effect = higher value; max dye-equivalent concentration, M; hit rate 0.04% among 59,000; AID 588; active = above 10 nM dye equivalent; inconclusive = 1 to 10 nM; inactive = 1 nM or less; a few of its hits are not listed in these tables; also: highest value over a series up to 38 µM
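Compounds in 100 mM Tris buffer, pH 8.0, incubated 15 min at room temperature, then read with 547 nm excitation and 598 nm emission filters. Fluorescence was converted to dye-equivalent concentration using an on-plate six-point resorufin standard curve.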
AID923 – qHTS Assay for Allosteric/Competitive Inhibitors of Caspase-1: Spectroscopic Profiling in AFC Spectral Region; hit rate 1.1% among 75,000; compound fluorescence, AFC spectral region (405/520 nm); almost no hit is shown here; Potency, µM (titrated, usually from 57.5 µM), without a hit: top-dose fluorescence increase, hits mostly activators; active = well fitted activation curve with a large enough effect; inconclusive = small, poorly fitted or top-dose-only effect;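 also: potency is read from the fitted curve at half-maximal effect; 0% is about no effect; scaled to a free AFC standard on each plate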
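Compound autofluorescence profiled at 405 nm ex/520 nm em during kinetic caspase 1 run (50 nM enzyme, 5 uM Ac-WEHD-AFC, HEPES pH 7.5, 10 mM DTT). Titration up to 57 uM; baseline from regression intercept, normalized to AFC standard curve.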
TSHR agonist – TSH receptor (human) agonism; Potency, µM (titrated, usually from 57.1 µM), inactives show at the highest dose activation, most hits filed as activators; P16473; hit rate 0.48% among 73,000; HEK293-CNG-TSHR cells (CNG channel as cAMP sensor), membrane potential dye, cAMP; active = well fitted activation curve of enough size with the parental cells flat; inconclusive = any curve in the parental cells; inactive = parental cells flat and receptor cells flat or falling; also: potency is read from the fitted curve at half-maximal effect; % of control where 0% means no effect; weak receptor curves with flat parental cells got no call and are not listed
Target sequence (P16473 whole entry, looked up): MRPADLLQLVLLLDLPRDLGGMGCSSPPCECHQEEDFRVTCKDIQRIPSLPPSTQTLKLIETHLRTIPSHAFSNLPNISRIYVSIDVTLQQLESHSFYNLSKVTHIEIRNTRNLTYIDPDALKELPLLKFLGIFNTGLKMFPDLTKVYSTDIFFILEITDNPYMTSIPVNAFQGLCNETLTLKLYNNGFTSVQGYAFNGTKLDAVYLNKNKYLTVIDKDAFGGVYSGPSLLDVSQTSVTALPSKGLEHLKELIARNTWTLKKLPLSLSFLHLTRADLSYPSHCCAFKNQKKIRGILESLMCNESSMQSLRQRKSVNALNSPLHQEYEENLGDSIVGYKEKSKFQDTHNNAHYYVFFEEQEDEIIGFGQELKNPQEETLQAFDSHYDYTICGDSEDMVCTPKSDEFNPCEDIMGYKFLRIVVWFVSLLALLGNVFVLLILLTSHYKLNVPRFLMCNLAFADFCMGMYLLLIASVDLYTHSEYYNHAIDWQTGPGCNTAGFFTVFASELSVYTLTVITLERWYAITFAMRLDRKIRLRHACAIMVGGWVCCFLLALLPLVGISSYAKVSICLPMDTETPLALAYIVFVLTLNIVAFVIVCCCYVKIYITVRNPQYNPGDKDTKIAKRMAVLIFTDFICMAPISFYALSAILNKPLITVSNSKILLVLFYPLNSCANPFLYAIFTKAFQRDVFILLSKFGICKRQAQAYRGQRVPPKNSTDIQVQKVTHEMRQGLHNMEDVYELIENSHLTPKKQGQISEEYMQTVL
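HEK 293 cells stably expressing TSHR and a modified CNG channel, with CNG-only parental cells as counterscreen, were preloaded 60 min at room temperature with membrane potential dye containing 100 uM RO 20-1724. Compound exposure was 30 min, and depolarization was read as fluorescence at 590 nm.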
A488 autofl – A488 region autofluorescence | compound autofluorescence, A488 spectral region, dye equivalency; stronger effect = higher value | max dye equivalency, M | hit rate 0.1% among 59,000 | AID 591; active = above 10 nM dye equivalent; inconclusive = 1 to 10 nM; inactive = 1 nM or less; about half of its hits are not listed in these tables;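 also: highest value over a series up to 38 µM; compound alone in buffer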
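Spectroscopic profiling in the A488 region: compounds in pH 8.0 Tris (100 mM), 15 min RT, CCD imaging with 480 nm excitation and 540 nm emission; responses normalized against A488 dye standards.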
A647 fluor – compound fluoresces in the A647 spectral region; Compound fluorescence, A647 channel (570/671 nm), Tris buffer; max dye-equivalent concentration, M; 59,000 tested, under 10 active; AID 592; active means above 1 µM dye equivalent; inconclusive means 0.1 to 1 µM; inactive means 0.1 µM or less;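 also: values scaled relative to a standard on each plate; highest value over a series up to 38 µM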
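Compound fluorescence was measured in 100 mM Tris buffer, pH 8.0, after 15 min at room temperature, using 570 nm excitation and 671 nm emission filters. Signal was normalized to a per-plate Alexa 647 standard curve and expressed as dye-equivalent concentration at each compound concentration.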
The depositor's hits bear a star; i = inactive; ? = inconclusive; . = no result given; [ ] = another dose, or the depositor's remark. The list is partial. The share of hits here may be higher or lower than overall.

Molecule	Resorufin fluor	AID923	TSHR agonist	A488 autofl	A647 fluor
C#CCCCO/N=C1/C[C@@H](O)[C@@H](O)[C@@H]2[C@@H]3C(=O)N(C[C@@H]4CCCO4)C(=O)[C@H]3CC[C@@H]12	.	-1.0%[11.5 µM]	-2.6%[11.4 µM]	.	.
O=C1C(=O)N(Cc2cccnc2)C(c2ccccn2)/C1=C(/O)c1ccc(Br)cc1 (configuration not stated)	i	.	.	i	3.23e-08
Cc1cccc(NC(=O)CSc2n[nH]c(-c3ccncc3)n2)c1	i	0.7%	1.5%	i	5.43e-08
COc1cc(NS(=O)(=O)c2ccc(C)cc2)ccc1-n1cnnn1	i	-0.8%	6.8%	i	3.6e-09
C=CCOc1ccc2ccccc2c1CNc1ncn[nH]1	i	0.8%	5.6%	i	3.33e-08
CN(C)CCCOC(=O)CCc1ccccc1	i	-1.2%	3.9%	i	1.42e-08
COc1cc(C(c2sc3nc(C)nn3c2O)N2CCOCC2)cc(OC)c1OC (configuration not stated)	.	-1.5%	-2.3%	.	.
CCc1ccc(C(=O)Nc2nnn(CC)n2)cc1	i	-1.8%	10.6%	i	9.9e-09
CCOc1ccc(-c2nc3n(c(=O)c2C#N)CCCS3)cc1	i	4.7%	.	i	1e-09
CCOC(=O)N1CCC(NC(=O)C(C)n2c3ccccc3c3cnn(C)c(=O)c32)CC1 (configuration not stated)	i	0.7%	3.3%	i	1.4e-08
Cc1c(C(=O)N2CCOCC2)[nH]c2c1C(=O)CC(c1ccccc1Cl)C2 (configuration not stated)	i	-1.6%	6.2%	i	1.41e-08
Fc1ccc(-c2nnc(CN3CCN(c4ncc(C(F)(F)F)cc4Cl)CC3)o2)cc1	i	0.8%	?	i	1e-09
COC(=O)c1[nH]c2ccc(C)cc2c1NC(=O)CN1CCc2cc(OC)c(OC)cc2C1	i	-1.7%	4.7%	i	4.3e-09
CC(C)CNC(=O)COC(=O)c1cc(S(=O)(=O)N2CCCCC2)ccc1N1CCOCC1	i	-0.1%	-2.2%[11.4 µM]	i	3.78e-08
CC(=O)c1cccc(NC(=O)CC2Oc3ccc(C)cc3NC2=O)c1 (configuration not stated)	.	-0.9%	1.8%	.	.
COc1ccc(C(=O)Nc2ccc(Cl)cn2)cc1Cl	i	-0.9%	-6.3%	i	3.86e-08
CCOC(=O)C1=C(O)CSC1=Nc1cccc(Cl)c1	.	2.2%	2.9%	.	.
COc1ccc(CN2CCN(C(=O)CN3C(=O)C4C5C=CC(C5)C4C3=O)CC2)c(OC)c1OC (configuration not stated)	i	0.9%	18.8%	i	1e-09
N[C@@H](Cc1cc(I)c(Oc2ccc(O)c(I)c2)c(I)c1)C(=O)O	i	.	.	i	1.6e-09
CC(C)COc1ccc(C(=O)NC(CC(C)C)C(=O)O)cc1 (configuration not stated)	i	.	.	i	7.79e-08
CCOc1ccccc1C1CC(=O)Nc2cc3c(cc21)OCCO3 (configuration not stated)	i	-0.6%	?	i	9.8e-09
O=c1c(N2CCCCC2)coc2ccccc12	.	-2.0%	-7.2%	.	.
COc1cc2c(cc1OC)CN(C(=O)c1ccc(OC)c(S(=O)(=O)N3CCOCC3)c1)CC2	i	-2.6%	7.0%	i	2.69e-08
C#CCSc1nnc(-c2cccc3ccccc23)o1	i	1.3%	.	i	1.9e-08
Cc1sc2nc(C(C)Sc3nnc(C)n3-c3ccccc3)[nH]c(=O)c2c1C (configuration not stated)	i	4.4%	-0.4%	i	1.87e-08
COc1ccc(Br)cc1C(=O)Nc1cccc(-c2nnc(-c3ccco3)o2)c1	i	1.8%	13.6%	i	1e-09
COc1ccc(NS(=O)(=O)c2cccc3cccnc23)cc1	i	-0.4%	4.9%	i	5.1e-09
Cc1cccc2cc(C#N)c(SCC(=O)N3CC(=O)Nc4ccccc43)nc12	i	11.1%	?	i	1e-09
c1ccc(CCc2nc(-c3ccncc3)no2)cc1	i	-0.2%	6.6%	i	4.5e-09
CC12CC(NC(=O)N1c1ccc(C(=O)N3CCN(c4ccc(F)cc4)CC3)cc1)c1ccccc1O2 (configuration not stated)	i	-2.7%	7.2%	i	1.4e-09
Cc1nc2nc3c(cn2n1)C(=O)CC(C)(C)C3	i	-1.4%	1.7%	i	4.6e-09
COC(=O)[C@@]1(Cc2ccc(F)cc2)[C@@H]2[C@@H](CC(=O)[C@H]2CC(=O)C(=O)N2CCCC2)CN1C(=O)c1ccccc1	.	-1.2%	16.2%	.	.
COc1ccc(-c2nnc(N)s2)cc1	.	0.1%	-14.4%	.	.
C=C(C)Cn1c(CCNC(=O)CCC)nc2ccccc21	i	-0.9%	1.0%[11.4 µM]	i	1e-09
Cn1nnnc1SCC(=O)N1CCN(c2cccc(Cl)c2)CC1	i	0.3%	6.1%	i	1e-09
Cc1ccc2c(c1)CCCN2C(=O)c1ccc2c(c1)OCO2	i	0.2%	?	i	6.4e-09
Cc1[nH]n(-c2ccccc2)c(=O)c1-c1ccccc1	.	3.6%	1.1%	.	.
O=C(c1ccccc1)N1CCN(Cc2ccccc2Br)CC1	i	-1.7%	-9.1%	i	1.2e-09
CC(NC(=O)Nc1nnc(C(F)(F)F)s1)N1C(=O)C2C3C=CC(C3)C2C1=O (configuration not stated)	i	-0.1%	-1.5%	i	2.1e-09
COc1ccc(-c2noc(CN3CCN(c4ccccc4)CC3)n2)cc1	.	0.6%	?	.	.
Cn1c(Cn2c(=O)sc3ccccc32)nnc1SCC(=O)NCCc1ccccc1	.	3.3%	7.0%	.	.
Cc1cc(NC(=O)CSc2nc3ccccc3c(=O)n2C2CCCC2)no1	i	0.5%	.	i	1e-09
CCCCN(C)Cc1c(C)[nH]c2ccc(Cl)cc2c1=O	i	-0.6%	2.4%	i	1e-09
Cc1cc(NC(=O)c2cc(-c3cccs3)on2)nn1Cc1ccc(Cl)cc1	i	-0.5%	15.9%	i	1e-09
N#Cc1cccc(-c2ccc3ncnc(NC4CCNCC4)c3c2)c1	i	2.8%	11.5%	i	1.79e-08
C(#Cc1ccccc1)Cn1nnc2ccccc21	.	0.0%	?	.	.
CC1CCN(C(=O)CSc2ccc3nnc(-c4ccc(F)cc4)n3n2)CC1	i	0.0%	-0.2%[11.4 µM]	i	7.9e-09
CCN1CCC[C@@H]1CNC(=O)c1c(OC)ccc(I)c1O	i	.	-2.7%	i	1e-09
COc1ccc(-c2cc(C(=O)Nc3c(C)nn(Cc4ccccc4Cl)c3C)no2)cc1OC	i	1.1%	23.0%	i	1e-09
Cc1onc(-c2ccccc2Cl)c1C(=O)Nc1ccccc1C(N)=O	.	-0.3%	-4.5%	.	.

Next section.
Molecule	Resorufin fluor	AID923	TSHR agonist	A488 autofl	A647 fluor
O=C(c1ccc(Cl)cc1)N1CCN(C(=O)c2ccco2)CC1	.	0.1%	2.1%	.	.
Cc1cccc(Cn2c(SCCO)nc3c2c(=O)n(C)c(=O)n3C)c1	i	0.0%	4.9%	i	1e-09
CCSc1ccccc1C(=O)Nc1cccnc1	i	-1.8%	-6.3%	i	6.4e-09
CCCCn1c(=O)n(C)c(=O)c2c3c(sc21)COC(C)(C)C3	i	.	.	i	2.8e-08
c1ccc(C(c2nnnn2Cc2ccco2)N2CCN(C3CCCC3)CC2)cc1 (configuration not stated)	i	-0.6%	?	i	3.53e-08
CCOc1ccc(N(CC(=O)N2CCc3ccccc32)S(=O)(=O)c2c(C)noc2C)cc1	.	-1.8%	14.5%	.	.
O=C(NCC(F)(F)F)Nc1cccnc1	i	-1.6%	0.2%	i	1e-09
COC(=O)c1ccccc1S(=O)(=O)NC(=O)c1ccccc1	i	-1.8%	-1.4%	i	1.2e-09
COc1cccc(-c2cc(NCc3cccs3)ncn2)c1	i	-2.3%	?	i	1e-09
Cc1noc(NS(=O)(=O)c2ccc(NC(=O)COc3ccc(Cl)cc3Cl)cc2)c1C	.	-1.0%	2.3%[11.4 µM]	.	.
O=C(NCCN=C1NS(=O)(=O)c2ccccc21)c1ccc2nccnc2c1	i	-2.3%	2.7%	i	7.3e-09
CC1(C)CC(=O)C(CC2=C(O)CC(C)(C)CC2=O)=C(O)C1	i	-0.4%	-0.8%	i	1e-09
CCCC(c1nnnn1CCc1ccccc1)N1CCN(C(=O)c2ccco2)CC1 (configuration not stated)	i	2.5%	?	i	1.7e-09
CSc1nc2cc(S(=O)(=O)N3CCCCC3)ccc2s1	i	1.4%[11.5 µM]	19.7%[11.4 µM]	i	3.4e-09
Cc1csc(B(O)O)c1	.	2.1%	1.1%	.	.
CCOC(=O)C(C)Oc1nc(Oc2ccccc2)nc(N(C)C)n1 (configuration not stated)	i	.	.	i	6.54e-08
O=C1OC2(c3ccccc3)C3CCCC2C13	i	-2.2%	-0.7%[11.4 µM]	i	2.15e-08
CCCC(=O)Nc1cc(OCC)c(NC(=O)NC2CCCCC2)cc1OCC	i	1.3%	7.2%	i	6.4e-09
Cc1cc(C(=O)CSc2nnnn2C)c(C)n1-c1ccc2c(c1)OCCO2	i	3.1%	?	i	2.79e-08
CCOC(=O)N1CCN(C(=O)c2ccc(CN(c3ccccc3)S(C)(=O)=O)cc2)CC1	.	-0.1%	0.4%	.	.
CCOC(=O)C(C#N)C(c1cccnc1)c1c(C)[nH][nH]c1=O (configuration not stated)	i	-1.2%	0.6%	i	3.5e-09
CCOC(=O)N1CCN(c2c(-c3ccc(C)c(C)c3)c(=O)c2=O)CC1	i	-0.7%	3.6%	i	3.69e-08
CCc1nc(N)c(C#N)c(-c2ccncc2)c1C	i	0.4%	2.8%	i	1e-09
Cn1c(=O)c2[nH]c(-c3cccnc3)nc2n(C)c1=O	i	-1.4%	?	i	5.06e-08
Cc1cc(C)c(C#N)c(N2CCN(Cc3ccc4c(c3)OCO4)CC2)n1	i	3.2%	22.5%	i	5.2e-09
COc1cccc(-c2cncnc2Nc2ccc(F)cc2)c1	i	1.1%	26.1%	i	3.05e-08
CCCC(=O)NCCc1cc2cc(C)c(C)cc2[nH]c1=O	i	-0.2%	4.5%	i	8.4e-09
Cc1ccc(NCc2nnc(SCC(=O)N3CCCCC3)n2CC2CCCO2)c(C)c1 (configuration not stated)	i	1.0%	29.6%	i	6.3e-09
COc1cccc(CNc2nc3nc(C)cc(C)n3n2)c1	i	-1.6%	-28.4%	i	2.53e-08
Cc1nc2c(C(=O)NCc3ccc4c(c3)OCO4)c[nH]n2c(=O)c1Cl	i	-1.3%	.	i	3.12e-08
COc1ccc(Cl)cc1NC(=O)CCn1cnc2ccccc2c1=O	i	0.0%	-11.2%	i	1e-09
CCCc1[nH]n(-c2nc3ccccc3s2)c(=O)c1C=NCCN1CCOCC1	i	.	.	i	4.93e-08
COc1ccc2cc(C(=O)NC3CCCCC3)c(=O)oc2c1	i	2.0%	11.1%	i	1e-09
O=C(NCc1ccc2c(c1)OCO2)c1c[nH]c2ccc(S(=O)(=O)N3CCOCC3)cc2c1=O	i	1.4%	15.4%	i	1e-09
